GIV Gai3 FP: inhibitors of GIV peptide binding to Galpha-i3, primary screen, biochemical, fluorescence polarization, FITC-GIV GBA peptide, rat Galphai3; Guanine nucleotide-binding protein G(i) subunit alpha-3 (Rattus norvegicus), P08753; 90 min; hits give low values; scaled: aluminum fluoride 0%, vehicle 100%; percent of control (FP), % (no concentration beside the values); actives 0.42% (n = 210,000); AID 1224905, 2016;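 active = replicate mean at 85% of control or lower, very high polarization wells dropped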;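 note: wells of about 15 µL received 100 nL stock; the first replicate is given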
Target sequence (P08753 whole entry, looked up): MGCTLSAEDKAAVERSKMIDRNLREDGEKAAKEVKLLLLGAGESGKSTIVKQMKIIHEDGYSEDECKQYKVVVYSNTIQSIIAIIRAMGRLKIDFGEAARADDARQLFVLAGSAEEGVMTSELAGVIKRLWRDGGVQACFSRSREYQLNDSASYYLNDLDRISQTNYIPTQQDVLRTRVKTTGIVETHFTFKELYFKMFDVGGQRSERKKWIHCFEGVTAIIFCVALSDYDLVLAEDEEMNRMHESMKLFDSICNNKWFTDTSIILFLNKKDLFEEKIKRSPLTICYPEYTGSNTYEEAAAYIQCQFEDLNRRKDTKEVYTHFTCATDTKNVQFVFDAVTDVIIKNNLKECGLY
Sa growth 42C: S. aureus growth inhibition at 42 and 30 °C, primary screen, LtaS inhibitor project, RN4220, two temperatures | OD600, 20 h, 42 °C; hits give low values | relative growth, % (test concentration not listed) | actives 0.53% (n = 170,000);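 active = growth at 42 °C up to 50% and 20 or more points under that at 30 °C, or under 10% at both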;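 note: 300 nL library stock went into each well; scaled to the means of positive and negative controls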
HCMV UL50-53 inh: inhibitors of HCMV UL50-UL53 interaction, biochemical, HTRF; HCMV UL50-UL53 nuclear egress complex (human cytomegalovirus); normalized percent inhibition; inhibition, % (test concentration not listed); actives 0.15% (n = 190,000); AID 1918969, 2023;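 active = both replicates at 50% or more, plus weaker picks with an unusually low signal ratio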;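 note: stock transfer was 100 nL into about 20 µL; 0% = negative control wells and 100% = wells with untagged competitor protein; inactives centre near -12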
Sa growth 42C second temp: recorded beside Sa growth 42C, whose call it bears; relative growth, %; measured here: growth at 30 °C;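 optical density after 20 h as mean of two plates; 100% = untreated growth and lower means inhibition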
* marks the source's active call; other numbers are inactive results; · = no result given; & = joins results of further samples.

compound	Sa growth 42C	GIV Gai3 FP	HCMV UL50-53 inh	Sa growth 42C second temp
CCOC(=O)C1=C(C)NC(=S)NC1c1ccc(-c2ccccc2Cl)o1 (stereo not drawn)	101	96	·	82
CCNC(=O)c1ccc(-n2c(C)ccc2C)cc1	112	·	-6	75
NC(=O)C[n+]1cccc(/C=N/O)c1	98	104	-12	94
O=c1c(=NNc2ccc(S(=O)(=O)N3CCOCC3)cc2)c(=O)c2ccccc12	95	·	0	95
CCOC(=O)c1cnc2cc(C(F)(F)F)ccc2c1Nc1cc(C)ccc1OC	97	97	0	92
CC1Cc2cc(S(=O)(=O)CCC(=O)N3CCN(c4ccccc4)CC3)ccc2N1C(=O)C1CC1 (stereo not drawn)	·	102	-10	·
CCc1cccc(NC(=O)C2COc3ccccc3O2)c1 (stereo not drawn)	118	·	-5	96
Cc1ccc(NC(=O)COc2ccccc2-c2nc(-c3ccccc3)no2)cc1	·	100	-11	·
CC(C)OC(=O)C(C)n1cnc2sc(-c3ccccc3)cc2c1=O (stereo not drawn)	35	·	-27	32
CCN1CCCC1Cn1c(=S)[nH]c2ccccc2c1=O (stereo not drawn)	119	103	2	106
COc1ccc(CNCCCn2ccnc2)c(OC)c1	100	104	27	89
CCOC(=O)C1=C(C)N=c2s/c(=C/c3ccccc3OC(C)=O)c(=O)n2C1c1ccc(OC(C)=O)c(OC)c1 (stereo not drawn)	·	98	-9	·
O=C(CN(c1cccc(Br)c1)S(=O)(=O)c1ccccc1)N1CCc2ccccc2C1	100	107	0	97
CCCOc1ccc(OCCSc2nc(N)cc(=O)[nH]2)cc1	99	96	·	88
Cc1ccc2nc(SCC(=O)NC(=O)C(C)(C)C)[nH]c2c1	97	·	-15	92
Cc1ccc2nc(-c3ccc(Cl)s3)c(Nc3ccc4c(c3)OCCO4)n2c1	97	102	-15	84
CC1Cc2cc(S(=O)(=O)N3CCN(c4cccc(Cl)c4)CC3)ccc2N1C(=O)C1CC1 (stereo not drawn)	·	108	-17	·
COc1ccc2c(c1)N(C)/C(=C1/SC(=S)N(C)C1=O)S2	126	94	-3	68
Cc1ccc2cccc(OCC(=O)c3ccc(C)c(C)c3)c2n1	110	96	-29	75
CCCc1c(C(=O)N(Cc2ccccc2)Cc2cccs2)cnn1-c1ccccc1	103	97	-14	86
Cn1c(-c2sc(=S)n(-c3ccccc3)c2N)nc2ccccc21	99	99	-25	90
COC(=O)C1Cc2ccccc2CN1S(=O)(=O)c1ccc(F)cc1 (stereo not drawn)	99	98	-7	90
Cn1nc(NC(=O)C(C)(C)C)c2c(F)cccc21	113	103	-2	69
Cc1c(C)n(-c2ccccc2)c2nc(C(=O)O)nc(N3CCCC3)c12	·	91	-46	·
O=C(CSc1ccccn1)c1cc(Cl)sc1Cl	102	101	-20	86
Cc1ccc(C(CC(=O)N2CCC(C)CC2)N2Cc3ccccc3C2=O)cc1 (stereo not drawn)	95	100	-30	88
O=C(OCc1ccc(Br)cc1)C1CCCCN1S(=O)(=O)c1ccc(F)cc1 (stereo not drawn)	120	100	·	94
Clc1ccccc1OCCCN1CCNCC1	114	102	-30	86
CCC(=O)N/C(N)=N/c1nc2ccccc2o1	71	103	-24	61
O=C(Nc1nc(CC(=O)N2CCCCC2)cs1)c1ccccc1	·	101	-15	·

Fetched by compound from the entries so far, 5 records:
compound	Sa growth 42C	GIV Gai3 FP	HCMV UL50-53 inh	Sa growth 42C second temp
CCOC(=O)C1=C(C)N=c2s/c(=C/c3ccccc3OC(C)=O)c(=O)n2C1c1ccc(OC(C)=O)c(OC)c1 (stereo not drawn)	·	98	-9	·
NC(=O)C[n+]1cccc(/C=N/O)c1	98	104	-12	94
COc1ccc2c(c1)N(C)/C(=C1/SC(=S)N(C)C1=O)S2	126	94	-3	68
CCOC(=O)c1cnc2cc(C(F)(F)F)ccc2c1Nc1cc(C)ccc1OC	97	97	0	92
O=C(CN(c1cccc(Br)c1)S(=O)(=O)c1ccccc1)N1CCc2ccccc2C1	100	107	0	97

Following part
compound	Sa growth 42C	GIV Gai3 FP	HCMV UL50-53 inh	Sa growth 42C second temp
COc1cccc(-c2nc3ccccc3c(=O)n2NC(=O)c2cc3cc(Br)ccc3oc2=O)c1	·	107	-45	·
Oc1ccc2ccccc2c1C1Nc2ccccc2-n2cccc21 (stereo not drawn)	87	101	-5	83
CC(C)n1c(C(O)c2ccc(N(C)C)cc2)nc2ccccc21 (stereo not drawn)	163	·	-6	90
O=C(Nc1ccc2c(c1)OCCO2)C1CCN(c2cc(-c3ccc(F)cc3)ncn2)CC1	·	103	-25	·
O=C(NC1CCCCC1)N1CCCC1c1ccccc1Cl (stereo not drawn)	·	108	15	·
NC(=NC(=O)c1cnccc1C(F)(F)F)c1ccccc1	105	94	2	105
O=C1C2=C(Nc3ccccc3SC2c2ccsc2)c2ccccc21 (stereo not drawn)	150	102	·	81
C=CCNc1nc(SC)nc2ccccc12	·	102	-13	·
CCCCn1c(=O)[nH]c(=O)c2c1nc(-c1ccc(-c3ccc(Cl)cc3)o1)n2C	90	·	-13	76
CCCN(C(=O)c1ccc2c(=O)n3c(nc2c1)CCCCC3)c1cccc(Cl)c1	105	98	-3	89
CCN(CC)c1ncnc2c1nnn2Cc1ccccc1	124	101	44	99
c1ccc2c(NC3CC3)nc(N3CCCC3)nc2c1	96	108	-1	68
CCN1C(=O)C2(c3ccccc31)c1c(oc3ccc(F)cc3c1=O)C(=O)N2CCCOC (stereo not drawn)	100	103	-38	84
CN(c1ccc(F)cc1)S(=O)(=O)N1CCCC(C(=O)N2CCN(c3ncccn3)CC2)C1 (stereo not drawn)	96	110	-25	93
CSc1nc2ccccc2n1CN1CCN(S(=O)(=O)c2ccccc2C#N)CC1	104	·	-36	95
CCOc1ccccc1C1C(C#N)=C(N)SC(N)=C1C#N	77	-78*	-11	71
O=C(Nc1ccccc1)C1CC(=O)N(c2ccccc2)C1 (stereo not drawn)	108	97	-26	82
N#CCSc1nc(C2CC2)cc(-c2ccc(F)cc2)c1C(N)=O	81	·	5	100
O=c1cc(NCc2ccccc2)n(-c2ccccc2)c(=O)n1-c1ccccc1	105	100	-23	88
CC1(C)CC(=O)C2=C(C1)NCN(CCCN1CCOCC1)C2	91	103	·	91
Cc1ccccc1CN1C(=O)c2ccccc2Sc2ccc(C(=O)NC3CCCC3)cc21	121	97	·	86
COc1ccc(C2=NN(CC(=O)NCc3ccccc3Cl)C(=O)CC2)cc1	102	109	·	92
COc1ccc(Br)cc1CNC(=O)CCCn1c(=O)c2cccn2c2cccnc21	101	106	·	94
O=C(CCc1ccccc1)Nc1ccc(C(=O)OC2CCCCC2)cc1	85	·	-13	90
c1ccc(CCCn2c(CN3CCOCC3)nc3ccccc32)cc1	·	105	20	·
CC1CCN(C(=O)c2csc(S(=O)(=O)N3CCOCC3)c2)CC1	·	110	-29	·
CN(C)Cc1c(O)ccc2occ(C(=O)c3cccc(Br)c3)c12	95	·	-6	94
CCCCCn1nnc2c(=O)oc3ccccc3c21	97	97	2	94
O=C(O)c1ccc(C23CC4CC(CC(C4)C2)C3)o1	85	106	-1	94
COc1ccc(C2C(C(=O)N3CC(C)CC(C)C3)CCC(=O)N2c2cc(OC)c(OC)c(OC)c2)cc1 (stereo not drawn)	87	102	-15	92

Next part; the last 2 above are carried over.
compound	Sa growth 42C	GIV Gai3 FP	HCMV UL50-53 inh	Sa growth 42C second temp
O=C(O)c1ccc(C23CC4CC(CC(C4)C2)C3)o1	85	106	-1	94
COc1ccc(C2C(C(=O)N3CC(C)CC(C)C3)CCC(=O)N2c2cc(OC)c(OC)c(OC)c2)cc1 (stereo not drawn)	87	102	-15	92
COC(=O)c1sc(N)c(C(=O)OC)c1COC(=O)CCN=C1NS(=O)(=O)c2ccccc21	77	·	-34	90
CCC(C)CCCNc1nnc(SCC(=O)c2nnc(-c3ccccc3)o2)s1 (stereo not drawn)	116	·	-7	93
CC(=O)OC(COc1ccccc1C)Cn1cnc2ccccc21 (stereo not drawn)	81	101	-4	73
Cc1cccc2cc3c(nc12)N(S(=O)(=O)c1ccc(C(C)(C)C)cc1)CC3	·	106	7	·
CCOC(=O)c1cc(S(=O)(=O)N2CCN(c3ccccc3F)CC2)cn1C	80	99	-23	79
c1ccc(CSc2ncnc3c2oc2ccccc23)cc1	80	·	0	92
CCN(CC)C(=O)C1CCN(c2cc(C)nc3c(-c4ccc(OC)c(OC)c4)c(C)nn23)CC1	97	105	-5	84
O=C(OCc1cn(-c2ccccc2)nc1-c1ccccc1)c1ccco1	96	·	-12	79
Cc1nc2nc(SCC(=O)NCc3ccccc3)nn2c(C)c1Cc1ccccc1	110	108	·	92
CCOc1ccccc1NC(=O)CN(C)S(=O)(=O)c1ccc2nc(C)sc2c1	102	100	-22	85
CC(=O)Oc1ccccc1C(=O)N1CCN(c2cccc(Cl)c2)CC1	92	·	0	62
CCN(C(=O)c1ccc2c(=O)n3c(nc2c1)CCCCC3)c1ccccc1	107	106	6	96
Cc1cc(C(=O)Nc2ccccc2)c(C)o1	99	101	-33	86
CC(Oc1cccc(Cl)c1)c1nc(-c2ccccc2)no1 (stereo not drawn)	103	107	5	98
COc1ccc(NC(=O)CSc2nc3c([nH]c4ccccc43)c(=O)n2C)cc1	130	108	·	95
CS(=O)(=O)Nc1cccc(C(=O)OCC(=O)c2cccs2)c1	90	·	-9	95
O=S(=O)(Nc1cccc(Cl)c1)c1cnc[nH]1	119	99	1	91
CCN(CC)C(=O)c1sc(NC(=O)c2nc3ncccn3n2)c(C(=O)OC)c1C	98	111	-48	104
O=C1C2C(c3ccccc3)OC3(C(=O)c4ccccc4C3=O)C2C(=O)N1C1CCCCC1 (stereo not drawn)	104	98	-7	95
COc1ccc(NC(=O)C2CC(=O)N/C(=N/N=C(\C)c3ccccc3)S2)cc1 (stereo not drawn)	93	106	-7	84
CNC(=O)NC(=O)COc1ccc(Oc2ccccc2)cc1	89	·	-10	91
CN(C(=O)COC(=O)c1nccnc1N)c1ccccc1	84	·	-42	96
CCCNC(=O)C1CCN(c2nn3c(=O)cc(C)nc3s2)CC1	104	103	·	90
CCCCc1c(C)[nH]c2ccccc2c1=O	79	105	-39	76
CC(C)(C)c1ccc(C2=NC(C)(C)N(CC(=O)Nc3ccc(F)c(F)c3)C2=O)cc1	97	101	-23	82
O=C1c2ccccc2S(=O)(=O)N1c1ccccc1F	77	97	2	81
Cc1oc(-c2ccccc2)cc1C(=O)NC1CCN(Cc2ccccc2)CC1	102	114	-3	96
COc1ccc(C(=O)OC2=C(c3ccccc3)C(=O)c3ccccc3C2=O)cc1	54	99	·	28
Cc1nc2c(c(C)c1CCC(=O)NCCc1ccco1)c(=O)n(C)c(=O)n2C	77	100	-19	88
O=C(NCC(c1ccc2c(c1)OCO2)N1CCN(c2ccccc2)CC1)C(=O)Nc1ccc(F)cc1 (stereo not drawn)	104	94	·	90
COc1cc([C@@H]2c3cc4c(cc3[C@H](O)[C@H]3COC(=O)[C@H]23)OCO4)cc(OC)c1OC	101	·	3&-15&-60	92
N/N=C1\CCCc2c1[nH]c1ccc(C(F)(F)F)cc21	88	·	-26	75
CC(=O)NCCNc1nc2c(-c3ccccc3)nnn2c2ccccc12	104	106	-2	86
C=CCN(CC=C)C(=O)c1ccc(OC)c(Br)c1	106	102	5	103
COc1ccc(-c2cc(C(=O)Oc3ccc(C)cc3)c3cc(C)ccc3n2)cc1	106	110	-51	89
O=C1CCC(C(=O)OCc2cc(=O)n3cc(Br)ccc3n2)=NN1	96	·	-62	101
CCc1ccc(C2=C(C)C(=O)N(CC(=O)Nc3c(C)cc(C)cc3C)S2(=O)=O)cc1	·	96	-22	·
